# Compound activity (PubChem BioAssay)
# D2 ag = agonists of human D2 dopamine receptor (beta-arrestin) | P14416 | DiscoveRx PathHunter D2 beta-arrestin, luminescence, 90 min; 100% = 57 uM dopamine signal | 360,000 compounds, 0.084% hits | activation, % (no concentration beside the values); in the data active = activation above about 40%; inconclusive = about 15% to 40%; inactive = below about 15%; also: compound concentration not given in the record; the text of the record calls up to 30% inactive
#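 DiscoveRx PathHunter D2 beta-arrestin cells (2,100/well) attached overnight, then compound-stimulated 90 min at 37 C in HBSS/10 mM HEPES/0.1% Tween-20 buffer; beta-galactosidase complementation read by luminescence after 1 h at ambient temperature. Dopamine 57 uM final (EC100) as control.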
# D2 potentiator = human D2 receptor positive allosteric modulation; 360,000 compounds, 0.23% hits; P14416; potentiation, % (no concentration beside the values); DiscoveRx D2 beta-arrestin cells, luminescence, 90 min; 100% = 57 uM dopamine signal; AID 624464; active = potentiation of 50% or more; inconclusive = 30% to 50%; inactive = 30% or less;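 also: compound concentration not given in the record; tested on top of an EC20 dose of dopamine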
#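 PathHunter D2 cells, attached overnight at 37 deg C, received compound in DMSO plus dopamine at EC20 (50 nM final) for 90 min at 37 deg C. Beta-arrestin recruitment was read as luminescence after 1 h with detection reagent at ambient temperature.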
# CtBP-E1A blk = CtBP/E1A binding inhibition; AID 651724; 340,000 compounds, 0.49% hits; activity change, % (test concentration not listed); AlphaScreen GST-E1A/His-CtBP binding, 1536-well; active compounds read low; control for the full effect not named in the record; in the data active means activity change below about -65%; inconclusive means about -30% to -65%; inactive means above about -30%; also: % is scaled to controls: 0 for no effect and ±100 for the full control effect
#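 In 5 uL wells, 23 nL compound meets equimolar GST-E1A and His-CtBP (5X stock 125 nM each) for 2 h, 37 °C. Beads (5X, 50 ug/mL) then 1 h, 37 °C, dark.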
# gsp antag = gsp mutant antagonism. gsp-mutant cells, cAMP HTRF, 30 min; control for the full effect not named in the record. Potency, µM (doses to about 76.9 µM), for the others: at the top dose activity change, negative = inhibition, actives largely listed as inhibitors. 340,000 compounds, 0.4% hits. AID 624288; active = falling curve of any shape with a large fitted effect; inconclusive = falling curve, mostly with a smaller effect; inactive = flat or rising curve; cell line not stated here;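 also: intracellular cAMP measured with PDE inhibitor Ro 20-1724 present during compound exposure; potency is read from the fitted curve at half-maximal effect; % is scaled to controls: 0 for no effect and ±100 for the full control effect; nearly all actives have a fitted effect of over 65% in size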
#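 Cells, 2000/well, grown 16–24 h in DMEM 10% FBS with 0.5 mg/ml G418, then compounds plus […] (300 uM addition stock), 30 min at 37C. cAMP read by HTRF (cAMP-d2 and anti-cAMP antibody-K in lysis buffer) after 30 min RT.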
# gsp ag = agonists of gsp mutant (McCune-Albright syndrome). gsp mutant cells, cAMP HTRF, 30 min; control for the full effect not named in the record. Potency, µM (highest dose often 76.9 µM), without a hit: at the top dose activation (cAMP increase), most hits filed as activators. 340,000 compounds, 0.13% hits; active = well fitted activation curve with a large enough effect; inconclusive = small, poorly fitted or top-dose-only effect, or another doubt; inactive = no such curve, though single readings can be large or run the other way; cell line not stated here;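 also: phosphodiesterase inhibitor Ro 20-1724 added with compounds to block cAMP breakdown; potency is read from the fitted curve at half-maximal effect; nearly all actives have a fitted effect of over 60% in size; about a fifth of the inactives were tested at one dose only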
#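 Cells in DMEM/10% FBS with G418 were pretreated with compounds in DMSO plus […] (300 uM stock) for 30 min at 37C. cAMP was measured by HTRF (cAMP-d2 plus anti-cAMP antibody-K) after 30 min at room temperature.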
# Six1-Eya2 blk = inhibitors of human Six1/Eya2 interaction. Q15475+O00167. AlphaScreen GST-Six1/His-Eya2 binding, biochemical; active compounds read low; control for the full effect not named in the record. AID 651725. 360,000 compounds, 0.56% hits. activity change, % (no concentration beside the values); in the data active = activity change below about -65%; inconclusive = about -30% to -65%; inactive = above about -30%; also: % is scaled to controls: 0 for no effect and ±100 for the full control effect
# Target sequence (O00167 whole entry, looked up): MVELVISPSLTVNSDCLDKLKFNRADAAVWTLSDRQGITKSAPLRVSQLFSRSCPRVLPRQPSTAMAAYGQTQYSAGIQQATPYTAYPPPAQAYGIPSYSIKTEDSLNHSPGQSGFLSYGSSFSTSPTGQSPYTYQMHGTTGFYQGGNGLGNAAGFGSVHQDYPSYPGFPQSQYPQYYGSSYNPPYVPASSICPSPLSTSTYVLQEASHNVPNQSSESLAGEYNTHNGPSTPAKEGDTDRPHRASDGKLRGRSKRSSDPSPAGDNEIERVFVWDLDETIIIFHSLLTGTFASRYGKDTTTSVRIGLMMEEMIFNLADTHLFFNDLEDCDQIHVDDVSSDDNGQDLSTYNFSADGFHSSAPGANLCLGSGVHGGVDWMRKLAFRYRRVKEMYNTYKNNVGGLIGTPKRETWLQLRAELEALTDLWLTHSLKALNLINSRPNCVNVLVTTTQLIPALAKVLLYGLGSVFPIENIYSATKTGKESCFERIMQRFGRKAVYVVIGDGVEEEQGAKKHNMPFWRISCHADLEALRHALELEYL
# Target sequence (Q15475 whole entry, looked up): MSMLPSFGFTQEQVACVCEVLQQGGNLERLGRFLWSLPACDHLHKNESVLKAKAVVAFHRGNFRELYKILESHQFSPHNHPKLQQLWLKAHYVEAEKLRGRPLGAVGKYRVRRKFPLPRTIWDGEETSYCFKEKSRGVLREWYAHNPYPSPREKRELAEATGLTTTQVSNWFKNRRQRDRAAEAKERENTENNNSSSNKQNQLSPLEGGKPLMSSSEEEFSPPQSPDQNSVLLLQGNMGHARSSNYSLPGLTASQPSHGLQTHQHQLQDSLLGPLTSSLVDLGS
#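 AlphaScreen with GST-Six1 and His-Eya2 (5X mix: 250 nM and 500 nM), glutathione donor and nickel acceptor beads; buffer 50 mM Tris pH 8.0, 300 mM NaCl, 1 mM TCEP; 1 h at 37 C in the dark.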
# * = called active by the depositor; ? = inconclusive; nt = no result given; [ ] = remark or other dose. Random draw from the library; any-hit rate near 1.4%.
# Field names: A = D2 ag; B = D2 potentiator; C = CtBP-E1A blk; D = gsp antag; E = gsp ag; F = Six1-Eya2 blk
1: COc1ccc(OC)c(NC(=O)c2cc(S(=O)(=O)N3CCCCC3)c[nH]2)c1
  A: -4.8; B: -3; C: 2; D: 0%; E: 0%; F: -3

2: O=C(CN1CCN(Cc2ccc(F)cc2Cl)C1=O)NCCc1ccccc1
  A: -5.9; B: -12; C: 0; D: 3%; E: 15%; F: 19

3: CC(C)c1cc(C(=O)N2CCCC(N3CCN(c4ccc(F)cc4)CC3)C2)n(C)n1 (configuration not stated)
  A: 0.5; B: -15; C: 0; D: -2%; E: ?; F: 4

4: Nc1cc(=O)[nH]c2nnc(SCC(=O)Nc3cccc4ccccc34)n12
  A: -5.5; B: -4; C: -2; D: -5%; E: 9%[15.4 µM]; F: 0

5: O=S(=O)(NN=C1CCCCCC1)c1ccccc1
  A: 0.2; B: -8; C: 4; D: 11%; E: ?; F: 0

6: Cc1cc(C(=O)CCC(=O)NCC2COc3ccccc3O2)c(C)s1 (configuration not stated)
  A: -1.5; B: -13; C: 4; D: 5%; E: -44%[inhibitor]; F: -4

7: COc1ccc(SC[C@H](Cc2ccccc2)N2CC[C@@H](C(C)(C)C)CCC2=O)cc1
  A: 1.6; B: 2; C: -9; D: -7%; E: ?; F: -8

8: O=C(Nc1ccc(-c2ccc([N+](=O)[O-])cc2)cc1)c1ccccc1F
  A: -4.9; B: -3; C: -1; D: 8%; E: -10%; F: -13

9: Cc1ccc2nc3n(c(=O)c2c1)CCC3
  A: -1.5; B: 2; C: 8; D: -2%; E: -52%[inhibitor]; F: -1

10: O=C(CSc1nnc(C2CC2)n1Cc1ccccc1)N1CCNC1=O
  A: 1.6; B: -6; C: 6; D: 7%; E: -6%; F: -5

11: COc1ccc2c(CC(=O)Nc3ccccc3N3CCOCC3)coc2c1
  A: 8.6; B: -1; C: 4; D: -7%; E: 3%[15.4 µM]; F: 7

12: Cc1cccc(N(CC(=O)NCc2ccco2)S(=O)(=O)c2ccccc2)c1
  A: -0.2; B: 6; C: 1; D: nt; E: 7%; F: -5

13: CCOc1ccccc1N1CCN(Cc2cccc(OC)c2OC)CC1
  A: 2.0; B: 4; C: -7; D: 6%; E: -4%; F: -3

14: Cc1ccc2nc(Nc3nc(CSc4nnc(C)s4)cc(=O)[nH]3)nc(C)c2c1
  A: -0.8; B: -8; C: 3; D: -20%; E: 10%[15.4 µM]; F: -14

15: CC(C)C(CO)N1CCN(Cc2ccccc2)CCC1=O (configuration not stated)
  A: -2.7; B: -1; C: 9; D: 10%; E: nt; F: 0

16: CN(C)S(=O)(=O)c1ccc(C(=O)N(c2ccccn2)c2ccccn2)cc1
  A: -2.5; B: -5; C: 12; D: 0%; E: 1%; F: 0

17: Cc1ccccc1NC(=O)COc1ccc(Br)cc1CNCCCO
  A: -3.6; B: -18; C: nt; D: 12%; E: 1%; F: 2

18: Cc1ccc([C@@H]2CC=C(C(=O)O)[C@H](c3ccccc3F)N2S(=O)(=O)c2ccc(C)cc2)cc1
  A: -0.9; B: 3; C: nt; D: -14%; E: 1%; F: 1

19: Cc1nc2ncnn2c(C)c1CCC(=O)Oc1ccccc1
  A: 0.5; B: 0; C: -6; D: 4%; E: 17%; F: -1

20: CN1C(=O)NC(c2ccc(O)cc2)C2=C1CN(c1ccccc1)C2=O (configuration not stated)
  A: -4.5; B: -4; C: 4; D: 3%; E: 6%; F: 2

# Arranged by the number under Six1-Eya2 blk (low to high): 4 of the compounds above.
# Field names: A = D2 ag; B = D2 potentiator; C = CtBP-E1A blk; D = gsp antag; E = gsp ag; F = Six1-Eya2 blk
7: COc1ccc(SC[C@H](Cc2ccccc2)N2CC[C@@H](C(C)(C)C)CCC2=O)cc1
  A: 1.6; B: 2; C: -9; D: -7%; E: ?; F: -8

1: COc1ccc(OC)c(NC(=O)c2cc(S(=O)(=O)N3CCCCC3)c[nH]2)c1
  A: -4.8; B: -3; C: 2; D: 0%; E: 0%; F: -3

5: O=S(=O)(NN=C1CCCCCC1)c1ccccc1
  A: 0.2; B: -8; C: 4; D: 11%; E: ?; F: 0

17: Cc1ccccc1NC(=O)COc1ccc(Br)cc1CNCCCO
  A: -3.6; B: -18; C: nt; D: 12%; E: 1%; F: 2

# Filtered by structure, those above with fluorine.
# Field names: A = D2 ag; B = D2 potentiator; C = CtBP-E1A blk; D = gsp antag; E = gsp ag; F = Six1-Eya2 blk
2: O=C(CN1CCN(Cc2ccc(F)cc2Cl)C1=O)NCCc1ccccc1
  A: -5.9; B: -12; C: 0; D: 3%; E: 15%; F: 19

3: CC(C)c1cc(C(=O)N2CCCC(N3CCN(c4ccc(F)cc4)CC3)C2)n(C)n1 (configuration not stated)
  A: 0.5; B: -15; C: 0; D: -2%; E: ?; F: 4

8: O=C(Nc1ccc(-c2ccc([N+](=O)[O-])cc2)cc1)c1ccccc1F
  A: -4.9; B: -3; C: -1; D: 8%; E: -10%; F: -13

18: Cc1ccc([C@@H]2CC=C(C(=O)O)[C@H](c3ccccc3F)N2S(=O)(=O)c2ccc(C)cc2)cc1
  A: -0.9; B: 3; C: nt; D: -14%; E: 1%; F: 1

# Part of the list above, bar-delimited.
item | molecule | D2 ag | D2 potentiator | CtBP-E1A blk | gsp antag | gsp ag | Six1-Eya2 blk
12 | Cc1cccc(N(CC(=O)NCc2ccco2)S(=O)(=O)c2ccccc2)c1 | -0.2 | 6 | 1 | nt | 7% | -5
11 | COc1ccc2c(CC(=O)Nc3ccccc3N3CCOCC3)coc2c1 | 8.6 | -1 | 4 | -7% | 3%[15.4 µM] | 7

# The list goes on.
# Field names: A = D2 ag; B = D2 potentiator; C = CtBP-E1A blk; D = gsp antag; E = gsp ag; F = Six1-Eya2 blk
21: COc1ccc(CN2CCC(C(=O)N3CCN(c4ccccc4F)CC3)CC2)cc1OC
  A: -0.6; B: -18; C: 4; D: 2%; E: 9%; F: -3

22: C#CCN(C(=O)c1ccc(OC)c(OC2CCN(C(C)C)CC2)c1)C1CCCCC1
  A: -3.6; B: -22; C: 0; D: 3%; E: 13%[15.4 µM]; F: -5

23: CCNC(=S)N(CCc1c(C)[nH]c2ccc(OC)cc12)Cc1cccnc1
  A: 0.5; B: 5; C: -5; D: -14%; E: 11%; F: -10

24: Cn1c(SC2CCCCC2=O)nnc1-c1ccncc1 (configuration not stated)
  A: -0.5; B: -5; C: 5; D: 13%; E: 16%; F: -2

25: COc1ccccc1OC(C)C(=O)N1CCN(Cc2ccc3c(c2)OCO3)CC1 (configuration not stated)
  A: -3.0; B: -7; C: 3; D: 3%; E: 5%[15.4 µM]; F: -7

26: On1nnc2ccccc21
  A: -7.4; B: -1; C: 0; D: -4%; E: 4%; F: 9

27: COc1cc(OC)cc(-c2nnc(SCC(=O)NCc3cccs3)o2)c1
  A: -2.2; B: -2; C: -2; D: 4%; E: -79%[inhibitor]; F: -3

28: CC[C@]1(c2ccccc2OC)ON(c2ccccc2C(F)(F)F)C1=O
  A: -1.0; B: 6; C: 8; D: 10%; E: nt; F: 22

29: N#Cc1c(NC(=S)NC(=O)Cc2cccs2)sc2c1CCCCC2
  A: -2.4; B: -13; C: -29; D: 32µM*; E: 32%; F: -19

30: O=C(Nc1c(C(=O)N2CCOCC2)cnn1-c1ccccc1)c1cccc(F)c1
  A: -4.7; B: -26; C: 9; D: 4%; E: 16%; F: 3

31: Cc1ccc(NC(=S)N(CCCN2CCCC2)Cc2cccn2Cc2ccc(Cl)cc2)cc1
  A: -0.6; B: -8; C: -13; D: 1%; E: -8%[15.4 µM]; F: -22

32: Nc1nc(-c2cccc(NS(=O)(=O)c3ccccc3)c2)cs1
  A: 1.8; B: 8; C: -24; D: -20%; E: -24%; F: -19
